Sa helicase inh = S. aureus DNA helicase inhibition; 120,000 tested, 0.05% active; inhibition, %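 (tested at about 80 µM)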; purified S. aureus helicase, fluorescence unwinding assay; about half of the hits fall short of the stated cut;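 active = both duplicates at 50% or more, or one of them with a favoured structure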;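 note: 0% = mean of negative control wells and 100% = mean of positive control wells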
MgrA DNA FP = alters Staphylococcus aureus MgrA binding to DNA; 84,000 tested, 0.13% active; AID 602314; inhibition, %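 (about 10 µg/mL by stock and volumes)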; fluorescence polarization;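 active = above 50% in either of two replicates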;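 note: 0% = protein plus DNA without compound and 100% = DNA alone without protein; higher means less MgrA bound to DNA so lower polarization; one replicate is shown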
The depositor's hits bear a star; . = not tested or not shown. The list is partial; rates above refer to the full screens.

item	compound	MgrA DNA FP	Sa helicase inh
1	CN1C(=O)N(CCOc2ccc(Cl)cc2)C(=O)C1(C)C	.	-2.0
2	C=CCn1c(CCCNC(C)=O)nc2ccccc21	.	1.0
3	C=CCNc1sc(C(=O)c2cccs2)c(N)c1C#N	4.8	1.0
4	Cc1cc(C)nc(N/C(=N\S(=O)(=O)Cc2ccccc2)Nc2ccccc2Br)n1	0.2	6.0
5	CCOC(=O)N1CCN(C(=O)CN(c2ccccc2)S(=O)(=O)c2ccc(F)cc2)CC1	2.5	13.0
6	N#C/C(=C(/O)COc1ncnc2ccccc12)c1nc2ccccc2[nH]1	.	-1.0
7	CCN(CC)S(=O)(=O)c1ccc2c(c1)c(=O)c(C(=O)NCc1cccs1)cn2C	.	7.0
8	CCOC(=O)C1=Cc2sc3c(c2CS1)CCCC3	21.1	1.0
9	CC(C)(C)NS(=O)(=O)c1ccc(NC(=O)CN2C(=O)c3ccccc3C2=O)cc1	0.5	0.0
10	CCOc1ccc(NC(C)C(=O)NCc2ccc3c(c2)OCO3)cc1 (centres undefined)	.	-17.0
11	CC(C)(C#N)N1CCN(c2ccccc2)CC1	0.1	.
12	O=C(Nc1ccccc1)Nc1ccc(-c2nnc3n2CCCCC3)cc1	.	11.0
13	O=c1/c(=C/c2cccs2)sc2nnc(-c3ccc(Cl)cc3)n12	4.2	.
14	N#CCOC(=O)[C@H](Cc1ccccc1)N1C(=O)c2ccccc2C1=O	.	2.0
15	CCCc1cc(=O)n2c(nc3ccccc32)[nH]1	.	-17.0
16	COc1ccc(Cn2nnc3c(=O)[nH]c(C4CCCN(S(=O)(=O)c5ccccc5)C4)nc32)cc1 (centres undefined)	-1.0	17.0
17	O=C(O)Cc1cn(-c2ccccc2)nc1-c1ccccc1	-0.5	-8.0
18	Cc1cc(C(=O)NCc2ccc(S(N)(=O)=O)cc2)cs1	0.8	-13.0
19	CC(=O)N/C(=C/c1ccccc1)C(=O)Nc1ccc(C)c(C)c1	-0.2	1.0
20	CCOC(=O)C1=C(N)Oc2c(c(=O)[nH]c3ccccc23)C1c1ccc(OC)c(OC)c1 (centres undefined)	-3.2	2.0
21	CC(C)Nc1nc(Cl)nc(Nc2ccc(-c3nc4ccccc4o3)cc2)n1	.	-1.0
22	Cc1ccc2nc(-c3ccc(O)c(O)c3)cn2c1	5.5	16.0
23	O=C(O)CN=CC1=C(O)CC(c2ccccc2)CC1=O (centres undefined)	-1.1	25.0
24	CCC1=C(C(=O)OC)C(c2cccc(O)c2)n2ncnc2N1 (centres undefined)	.	11.0
25	COc1ccccc1N=c1scc(-c2ccco2)n1/N=C/c1ccccn1	.	2.0
26	CCc1ccccc1CSc1n[nH]c(=O)n1Cc1ccco1	.	-3.0
27	CCN(c1ccccc1)S(=O)(=O)c1ccc(CC(C)C)cc1	0.4	-8.0
28	COc1ccc(CNC(C)=O)cc1	-3.0	6.0
29	NC(=O)Cc1cc2ccccc2n1Cc1ccccc1	-1.8	5.0
30	Cc1ccc(S(=O)(=O)N=C2SCCCS2)cc1	0.2	0.0
31	COC(=O)c1ccc2c(c1)N(C)S(=O)(=O)/C(=C\Nc1ccc(Cl)cc1)C2=O	-0.1	.
32	CCCC(=O)Nc1nc(CC(=O)OCC)cs1	-0.5	6.0
33	FC(F)(F)c1ccc2sc(=S)[nH]c2c1	2.6	10.0
34	N#CC(Nc1ccc(Cl)cc1Cl)c1ccccc1 (centres undefined)	-0.8	.
35	CCOc1ccc(-n2cc(-c3ccccc3)c3c(SCC)ncnc32)cc1	-0.9	7.0
36	CC1CCCC(NC(=O)c2ccc3c(c2)N(Cc2ccccc2)C(=O)CS3=O)C1C (centres undefined)	.	17.0
37	N#C/C(=C\N1CCC(n2cccc2)CC1)S(=O)(=O)c1ccccn1	-1.6	.
38	CCC(=O)NC(Nc1ccc(S(=O)(=O)Nc2ccc(OC)nn2)cc1)(C(F)(F)F)C(F)(F)F	1.8	-9.0
39	O=C(O)c1cc2cc(Br)cc(Br)c2oc1=O	2.8	.
40	COc1ccc(C2=NN(CC(=O)NCCN3C(C)CCCC3C)C(=O)CC2)cc1 (centres undefined)	.	7.0
41	CCCCn1c(O)c(C#N)c(C)c(N=Nc2ccc(C#N)cc2)c1=O	-0.9	.
42	O=C(c1ccc(CSc2ncn[nH]2)cc1)N1CCc2ccccc21	.	-2.0
43	CC(C)(C)c1nc(N)nc(NNS(=O)(=O)c2ccccc2C(F)(F)F)n1	.	-22.0
44	O=C(CN1C(=O)C2C3C=CC(C3)C2C1=O)N1CCN(c2ccccc2)CC1 (centres undefined)	.	5.0
45	CN1CC(=O)NC(=O)C1	.	14.0
46	CCC(C)(C)C(=O)Nc1nnc(COC)s1	-0.9	0.0
47	Cc1ccc(N(Cc2ccc(C(=O)N3CCOCC3)cc2)S(C)(=O)=O)cc1C	-1.9	15.0
48	Clc1ccc2c(c1)CN(Cc1ccccc1)CO2	.	5.0
49	C1CCC(Nc2nnc(SCC3CCCCO3)s2)CC1 (centres undefined)	.	6.0
50	O=C(/C=C/c1ccccc1)Oc1ccc(-c2cnc3ccccc3n2)cc1	1.1	-4.0
51	O=c1[nH]c2c(cnn2-c2ccccc2)c(=O)n1-c1ccc(Cl)c(Cl)c1	.	19.0
52	COc1ccc(C(=O)c2coc3ccc(O)c(CN4CCCCC4)c23)cc1	.	6.0
53	COc1cccc(-c2nnc(SCC3CNC(=O)O3)n2-c2ccc(Cl)cc2)c1 (centres undefined)	.	-7.0
54	NC(=O)C(Cc1ccccc1)NC(=O)c1ccc(Cl)cc1Cl (centres undefined)	-0.8	11.0
55	CCC(C)C1=NN(C(=O)c2ccccc2)C(O)(C(=O)OC)C1 (centres undefined)	-0.4	3.0
56	Cc1c(CCN)sc2nc(-c3ccc(Cl)cc3)nn12	.	10.0

(listing goes on)
item	compound	MgrA DNA FP	Sa helicase inh
57	CC(C)NC(=O)N(Cc1cccnc1)Cc1cccc(Cl)c1Cl	-1.5	.
58	CC(C)(C)n1nc2c(c1NC(=O)Nc1ccccc1)CSC2	.	6.0
59	CC(Oc1ccc(C#N)cc1)C(=O)N1CC=C(c2ccccc2)CC1 (centres undefined)	.	9.0
60	Cc1ccc(C(=O)NC2CS(=O)(=O)CC2NC(=O)c2ccc(C)c(Cl)c2)cc1Cl (centres undefined)	0.1	17.0
61	O=C(Nc1ccccc1C(=O)Nc1cccnc1)c1ccccc1	-0.7	.
62	O=C(c1cc(C2CC2)nn1-c1ccccc1)N1CCN(c2ccccn2)CC1	.	23.0
63	CCSC1(SCC)N=C(N)C2(C#N)C(c3ccccc3Br)C12C#N (centres undefined)	.	13.0
64	N/C(=N\O)c1ccc([N+](=O)[O-])cc1	3.0	.
65	Cc1nnc(SC(C)C(=O)NC(C)(C#N)C(C)C)n1-c1ccccc1 (centres undefined)	.	27.0
66	CCOC(=O)c1cnc2c(ccc3ccccc32)c1NCCOC(=O)c1cccnc1	-0.9	-1.0
67	O=C1/C(=C/c2cccs2)SC(=S)N1Cc1ccccc1	1.1	1.0
68	CCCCNC(=O)c1cc(=O)[nH]c2ccc(Br)cc12	.	14.0
69	CCN(C(=O)c1ccc2c(=O)n3c(nc2c1)CCCCC3)c1cc(OC)ccc1OC	.	18.0
70	O=C(NCC1CCCO1)C1c2ccccc2C(=O)N1CCc1ccccc1 (centres undefined)	.	-11.0
71	O=C(Cc1ccccc1)c1c[nH]c(C(=O)NC2CCCC2)c1	2.3	.
72	CC(CNC(=O)c1cc(C2CC2)[nH]n1)c1ccccc1 (centres undefined)	.	-28.0
73	O=C(NCC1CCCO1)c1ccc2c(=O)n3c(nc2c1)CCCCC3 (centres undefined)	.	2.0
74	c1ccc2c(c1)CCN2Cc1csc2c1CCCC2	4.2	13.0
75	S=C(Nc1ccccc1)N1CCCCC1	3.1	-3.0
76	Cn1c2ccccc2c2nnc(SCCC(=O)N3CCCC3)nc21	0.5	29.0
77	COc1ccc(OC)c(/C(N)=N/O)c1	-1.4	.
78	COc1ccc(/C=C(/C#N)S(=O)(=O)C2CCCCC2)cc1	.	10.0
79	Cc1c(CO)cnn1-c1ccc(F)cc1	-3.5	.
80	CCOC(=O)Cc1c[nH]c2ccccc12	.	4.0
81	CN(C)c1ccc(-c2nc3cc(NC(=O)c4ccc(Br)cc4)ccc3o2)cc1	1.4	.
82	CCC(C)NC(=O)c1oc2ccc3c(c2c1C)C(=O)CC1(CCCC1)O3 (centres undefined)	.	4.0
83	Cc1cccc(NC(=O)CC(=O)c2ccccc2)c1	-0.8	-3.0
84	CSc1ncccc1C(=O)OCc1ccccc1	0.2	-15.0
85	COc1ccc(-c2cn3cc(Cl)ccc3n2)cc1OC	-0.4	6.0
86	O=C(O)c1ccc(CSCc2c(F)cccc2Cl)o1	.	4.0
87	COc1cscc1C(N)=O	0.0	.
88	Cc1ccc(CSCC(=O)O)cc1	.	-1.0
89	CCOC(=O)c1sc(S(C)(=O)=O)c2c1CCCC2O (centres undefined)	-0.1	.
90	Brc1ccc(-c2nnco2)cc1	1.5	15.0
91	O=C1Cc2ccccc2C(c2ccc(Cl)cc2)N1 (centres undefined)	1.5	.
92	Cc1cc(C(=O)O)c(C)o1	-0.2	-14.0
93	COC(=O)c1cc(COC(=O)CNC(=O)C23CC4CC(CC(C4)C2)C3)oc1C	.	-16.0
94	O=C(Cn1c(=O)oc2cc(S(=O)(=O)N3CCCCC3)ccc21)N1CCCCC1	.	13.0
95	c1ccc(Nc2ncnc3sccc23)cc1	.	6.0
96	CC(CCc1ccccc1)NC(=O)c1ccc2ccccc2c1 (centres undefined)	-0.9	2.0

The final 2 records of the part above come first, to join the parts.
item	compound	MgrA DNA FP	Sa helicase inh
95	c1ccc(Nc2ncnc3sccc23)cc1	.	6.0
96	CC(CCc1ccccc1)NC(=O)c1ccc2ccccc2c1 (centres undefined)	-0.9	2.0
97	O=C1C(Nc2ccc(O)cc2)=C(n2nnc3ccccc32)C(=O)c2ccccc21	-0.3	5.0
98	CCOC(=O)c1oc2ccccc2c1C	0.0	0.0
99	CC1=C(C(N)=O)C(c2cccs2)NC(=S)N1 (centres undefined)	2.3	7.0
100	CNC(=S)Nc1ccc(N2CCN(c3ccc(C(F)(F)F)cn3)CC2)nc1	2.5	.
101	S=C(/N=C(\Nc1ccccc1)c1ccccc1)Nc1ccccc1	0.8	1.0
102	O=C(COC(=O)[C@@H]1CC(O)CN1S(=O)(=O)c1ccc2c(c1)OCCO2)c1ccccc1 (some centres undefined)	.	9.0
103	COc1ccc(CC(=O)N2CCN(C(=O)Cc3ccc(OC)cc3)CC2)cc1	.	8.0
104	CS(=O)(=O)c1sc(C(=O)Sc2cccs2)c2c1C=CCC2	.	13.0
105	COC(=O)c1cc(OC)c(OC)c(OC)c1NS(=O)(=O)c1cc(Cl)cc(Cl)c1	-1.5	.
106	Cc1nc2ccc(NC(=O)N(C(C)C)C(C)C)cc2s1	-2.5	14.0
107	NC(=O)c1snnc1-c1ccccc1	0.0	.
108	CCCNC(=O)CSc1nnc(-c2ccncc2)n1CCOC	.	3.0
109	Cc1ccnc(N2CCC(C(=O)O)CC2)n1	.	4.0
110	COc1ccc(C(=O)Nc2nc3c(C)cccc3s2)cc1OC	.	-3.0
111	CCOC(=O)N1CCC(N(CCOC)C(=S)Nc2ccccc2F)CC1	.	5.0
112	c1ccc2c(N3CCOCC3)c3c(nc2c1)CCC3	-2.0	7.0
113	Cc1cccc(Cn2cc(C(=O)c3ccc(C)c(C)c3)c(=O)c3cc4c(cc32)OCO4)c1	-1.1	11.0
114	Cc1ccc(S(=O)(=O)CC2CSc3nnc(C)c(=O)n32)cc1 (centres undefined)	4.7	10.0
115	Cc1ccc(NC(=O)CC(NC(C)C)C(=O)O)cc1 (centres undefined)	.	-11.0
116	Cc1c(C(=O)CC#N)sc2ccc(Cl)cc12	3.7	.
117	COc1ccc(OC(=O)C2CC(=O)N(c3ccc(C)cc3)C2)cc1 (centres undefined)	-3.0	4.0
118	CNC(=O)Nc1ccccc1NC1=C(C(=O)OC)CSC1	9.1	.
119	NC(=O)Cn1c(CCCCc2nc3ccccc3n2CC(N)=O)nc2ccccc21	.	9.0
120	NC(=O)COC(=O)c1n[nH]c2ccccc12	.	12.0

The final 4 entries of the section above come first, to join the parts:
item	compound	MgrA DNA FP	Sa helicase inh
117	COc1ccc(OC(=O)C2CC(=O)N(c3ccc(C)cc3)C2)cc1 (centres undefined)	-3.0	4.0
118	CNC(=O)Nc1ccccc1NC1=C(C(=O)OC)CSC1	9.1	.
119	NC(=O)Cn1c(CCCCc2nc3ccccc3n2CC(N)=O)nc2ccccc21	.	9.0
120	NC(=O)COC(=O)c1n[nH]c2ccccc12	.	12.0
121	Cc1nccn1-c1ccc(C(F)(F)F)cc1NC=O	.	-10.0
122	Cc1sc(NC(=O)Cn2nc(C(F)(F)F)cc2C)c(C(N)=O)c1C	10.0	3.0
123	COc1cccc(C(=O)NCc2cccnc2)c1	.	12.0
124	O=C(NC1=NCCS1)C1CC=CCC1 (centres undefined)	.	-9.0
125	CCCc1cc(=O)[nH]c(/N=C(\N)Nc2cccc(C)c2)n1	-0.1	7.0
126	CC(C)OC(=O)c1cc2cc(Br)ccc2oc1=O	0.8	8.0
127	O=C(NC(=O)c1ccccc1)OC1CCS(=O)(=O)C1 (centres undefined)	-3.3	-10.0
128	CC(C)OC(=O)Cn1c(C(=O)OC(C)C)cc2c1ccn2-c1ccc(F)cc1	-0.8	-9.0

Source: PubChem BioAssay
